VACV Venus inh – inhibitors of vaccinia virus (Venus reporter); Vaccinia virus Venus reporter expression, fluorescence; Potency, µM (highest dose often 36.5 µM), inactives show at the highest dose activity change, negative = inhibition, most hits filed as inhibitors; 0.46% of 330,000 active; active means well fitted inhibition curve with a large enough effect; inconclusive means small, poorly fitted or top-dose-only effect; inactive means no such curve, though single readings can be large or run the other way; tested in A549 cells; also: nearly all actives have a fitted effect of over 30% in size; inactives centre near -10
Vaccinia mCherry – inhibitors of vaccinia virus infection (mCherry reporter signal); Vaccinia virus mCherry reporter infection, fluorescence; about a quarter of the inactives have no number; AID 720579; 0.63% of 310,000 active; Potency, µM (doses to about 36.5 µM), inactives show at the top dose activity change, negative = inhibition, most hits filed as inhibitors; active = well fitted inhibition curve with a large enough effect; inconclusive = small, poorly fitted or top-dose-only effect; inactive = no such curve, though single readings can be large or run the other way; tested in A549 cells; also: nearly all actives have a fitted effect of over 35% in size; inactives centre near -10
Starred values were filed as active, the others as inactive; i = inactive; ? = inconclusive; nt = no result given; & = joins results of further samples; [ ] = dose if it differs, or a comment. % is scaled to controls: 0 for no effect and ±100 for the full control effect; potency is read from the fitted curve at half-maximal effect. No enrichment for hits; 0.87% or so of the library scored in one or more.

smiles	Vaccinia mCherry	VACV Venus inh
Cc1cc(C)n(CCc2nc(-c3ccc(C)o3)cs2)n1	nt	-19%
NCCCN(Cc1ccc(Cl)c(Cl)c1)c1ccccn1	-1%	-20%
O=C1/C(=N\O)Cc2ccccc21	-4%	-19%
CC(C)(C)c1ccc2c(c1)OC(C(=O)N/N=C\c1ccncc1)CO2 (stereo not drawn)	?	-9%
CCOc1ccc(CCNC(=O)Cc2nn[nH]n2)cc1OCC	-12%	-6%
CN(C(=O)c1ccc(NC(=O)Cc2cccc(NC(=O)C3CCN(C(=O)C4CC4)CC3)c2)cc1)C1CCCC1	-9%	-12%
CCOC(=O)C1=CN(CC)S(=O)(=O)NC1CCc1ccccc1 (stereo not drawn)	-3%	-23%
Cc1ccc(NC(=O)CSc2nnc(C)c(=O)n2N)c(C)c1	i	-8%
O=C(CN1C(=O)c2ccccc2C1=O)N1CCCCC1	-5%	-6%
O=C(NCc1ccccc1)C1=C[C@@H](c2coc3ccccc3c2=O)C[C@@H](OCc2ccc(CO)cc2)O1	-3%	-22%
COCCn1c(C)cc(C(=O)CSc2nnc(C3CC3)n2C2CC2)c1C	i	3%
O=C1N[C@H]2CC=C[C@H]2N(Cc2cccs2)c2ccccc21	-9%	-21%
O=C(CN1CCN(C(=O)c2cccc(-n3cnnn3)c2)CC1)Nc1ccccc1Cl	-12%	-14%
CCOC(=O)c1c(CC(C)C)csc1NC(=O)C(C)C	nt	-8%
CC(C)Cc1ccc(C(C)C(=O)Nc2cccnc2)cc1 (stereo not drawn)	-21%	-18%
Nc1ccc(-c2nc3ccc([N+](=O)[O-])cc3[nH]2)cc1	-1%	-7%
Cc1ccc(S(=O)(=O)N2CCN(c3ccnc4cc(Cl)ccc34)CC2)cc1	-13%	-4%
CCOc1ccc2c(c1)nc(NCCCO)n2Cc1ccccc1	?	-10%
Cc1cc(Br)cn2c(Cc3ccsc3)c(-c3ccc(C#N)cc3)nc12	18%	-7%
COc1nc(NCCO)nc(Nc2ccccc2F)n1	i	-10%
COc1cccc(N2CCN(CC(=O)NCc3cccs3)CC2)c1	-29%	-17%
CCc1nn(CC(=O)N2CCN(CC)CC2)c(=O)c2cccn12	i	7%
Cc1ccc(-c2nnc(NCc3ccccc3)c3ccccc23)cc1	-11%	-3%
O=C(Oc1ccc(-c2nnco2)cc1)c1ccc(F)c(S(=O)(=O)N2CCOCC2)c1	i	-16%
O=C(Nc1nnc(-c2cccs2)s1)c1cccc(F)c1	5%	-3%
Cn1c(=O)cc(N2CCN(C(=O)c3ccco3)CC2)[nH]c1=O	i	4%
CCOCCn1ccc2c(OCC(=O)Nc3ccc(OC(F)(F)F)cc3)cccc2c1=O	1%	4%
CC1CCCCC12NC(=O)N(CC(=O)N1CCc3ccccc3C1)C2=O (stereo not drawn)	i	-11%
CSCCC(NS(=O)(=O)/C=C/c1ccccc1)C(=O)N1CCC(C)CC1 (stereo not drawn)	-10%	-23%
COC(=O)C1=C(C)NC(=S)NC1c1ccc(-c2cccc(Cl)c2)o1 (stereo not drawn)	-12%	-2%
CCOC(=O)c1[nH]cnc1C(=O)Nc1cccc(N)n1	-5%	-10%
CCOC(=O)/C(=C\c1c[nH]c2ccccc12)NC(C)=O	-9%	-10%
CC1CN(c2ccnc3cc(Cl)ccc23)CC(C)O1 (stereo not drawn)	-19%	-14%
O=C(NN=C1c2ccccc2-c2ccccc21)c1cccc(Br)c1	-11%	-2%
O=C(CSc1nc2c(c(=O)n1-c1ccccc1)SCC2)N1CCN(c2ccccc2)CC1	-12%	-2%
COc1ccc(Cl)cc1NC(=O)NC1CCCCC1	-12%	-5%
CC1CCN(S(=O)(=O)c2cccc(-c3csc(-c4cccnc4)n3)c2)CC1	-12%[1.46 µM]	-16%
Cc1ccc(S(=O)(=O)N2CCN(c3nc(-n4ccnc4)nc4ccccc34)CC2)cc1	i	-17%
CC(=O)NC1CC(C)(C)N(OC(C)=O)C(C)(C)C1	-13%	-2%
CCOC(=O)N1CCN(C(=O)c2n[nH]c(=O)c3ccccc23)CC1	i	-19%
Cc1ccc(S(=O)(=O)N2CC(O)CC2C(=O)OCc2nc3sc(C)c(C)c3c(=O)[nH]2)cc1 (stereo not drawn)	-3%	1%
Cc1ccc(C)c(N2CCN(S(=O)(=O)c3ccc4c(c3)C(C)(C)C(=O)N4C)CC2)c1	-15%	-5%
CO[C@H]1[C@H](NC(=O)c2cccc(F)c2)c2ccccc2C12CCN(Cc1ccco1)CC2	-4%	-6%
CC(C)NC(=O)COC(=O)c1ccc(Oc2ccccc2)cc1	-13%	-7%
Cc1ccc2nc(-c3ccc(NC(=O)CN4C(=O)c5ccccc5C4=O)cc3)sc2c1	i	-12%

Laid out differently: results already given.
Below each compound: Vaccinia mCherry | VACV Venus inh
CCOC(=O)c1[nH]cnc1C(=O)Nc1cccc(N)n1
    -5% | -10%
CCOC(=O)/C(=C\c1c[nH]c2ccccc12)NC(C)=O
    -9% | -10%
CC1CN(c2ccnc3cc(Cl)ccc23)CC(C)O1 (stereo not drawn)
    -19% | -14%

The listing continues:
smiles	Vaccinia mCherry	VACV Venus inh
COc1ccccc1-c1cc2nc(C)c(CCC(=O)NC3CCCCC3)c(C)n2n1	-6%	2%
Cc1ccc(N(C)S(=O)(=O)c2cccc(C(=O)OCC(=O)N3CCCC(C)C3)c2)cc1 (stereo not drawn)	-13%	0%
O=C(Nc1ccc(N2CCOCC2)cc1)c1nc2ccccc2s1	?	13%
CC(=O)Nc1ccc(Nc2cc(-c3ccccc3)nc3ncnn23)cc1	i	-6%
Cc1ccc(NC(=O)c2oc3ccccc3c2NC(=O)Cc2cccs2)cc1	-13%	-3%
N=C1/C(=C/c2ccc(OC(=O)c3ccco3)cc2)C(=O)N=C2SC=CN12	i	14%
O=C1OC[C@@H]2CCCN2C(=O)[C@@H](CC(=O)N(CCO)Cc2ccccc2)C/C=C\CC[C@H]1Cc1ccc(F)cc1	0%	-17%
COCCCNC(=O)Cn1c(=O)n(-c2ccc(C)cc2)c(=O)c2c1c1cc(C)ccc1n2C	-8%	-6%
CC(=CC(=O)c1ccccc1)c1ccccc1	-3%	0%
Cc1nnc(SCC(=O)Nc2nnc(SCc3cccc(Br)c3)s2)s1	-7%	-7%
CCC(=NC(C)c1ccccc1)c1c(O)[nH]c(=O)[nH]c1=O (stereo not drawn)	-16%	-7%
Cc1ccc(C)c(N(C)S(=O)(=O)c2ccc3c(c2)oc(=O)n3C)c1	-21%	-19%
Cc1ccccc1NC(=O)Nc1ccc2nc(N3CCN(C)CC3)cc(C)c2c1	-11%	-7%
COc1ccccc1OCCSc1nnnn1C1CCCCC1	nt	-13%
C/C=C/C(=O)OCC(=O)NC(=O)NC(C)C	?	?
O=C(COC(=O)c1cc[n+]([O-])cc1)Nc1cccc(Cl)c1Cl	-27%	-8%
N#Cc1cn(CC(=O)NCc2cccnc2)c2ccccc12	-15%	-8%
CN(CC(=O)Nc1ccc(Cl)c(C(F)(F)F)c1)C(=O)c1ccc(N2CCOCC2)c([N+](=O)[O-])c1	-2%	-12%
COc1cc(/C=N/NC(=O)CCn2c3ccccc3c3ccccc32)ccc1O	-24%	-23%
CC1Cc2ccccc2N1C(=O)C1CCCN1S(=O)(=O)c1ccc(Cl)cc1 (stereo not drawn)	-3%	-7%
CC(C)(C)n1nnnc1C(c1cc2ccccc2o1)N(CCC#N)Cc1ccccc1 (stereo not drawn)	-6%	-11%
COc1ccc(CC(Cc2ccc(OC)c(OC)c2)NC=O)cc1OC	-9%	-6%
COc1ccc(CN2CCN(C(C)=O)CC2)cc1OC1CCN(C(=O)c2ccc3[nH]c(C)c(C)c3c2)CC1	-10%	2%
COc1ccc(CCNC(=O)CSc2nn(-c3ccccc3)c(=S)s2)cc1	?	-13%
Cc1ccc(OCCNC(=O)CCc2nc3sc4c(c3c(=O)[nH]2)CCCC4)cc1	-9%	-1%
CC[C@]12c3[nH]c4cc(-c5ccco5)ccc4c3CCN1C(=O)[C@@H](CC(=O)NCCCN(C)C)C[C@@H]2C(=O)N1CCN(C(=O)c2ccco2)CC1	i	-10%
COc1ccccc1NC(=O)CSc1nnc(-c2cccc(Cl)c2)o1	-3%	5%
O=C(CCC(=O)N/N=C/c1cc(Cl)cc(Cl)c1O)NCc1ccccc1	-1%	1%
CC[C@@H](C)C(NC(=O)OC(C)(C)C)c1cn([C@@H](Cc2ccc(O)cc2)C(=O)N2CCN(C(=O)OC(C)(C)C)CC2)nn1 (stereo partly drawn)	-10%	-29%
O=C(Nc1nc2ccccc2s1)c1ccc(OCC2CCCO2)cc1 (stereo not drawn)	-6%	-19%
COc1ccccc1C(=O)Nc1ccc2nc(SCCOc3ccccc3C)sc2c1	-22%	-12%
COc1cccc(CC(=O)Nc2ccc3c(c2)CCC3)c1	-2%	-2%
CCNC(=O)N1CCN(C(=O)NCC)CC1	i	-10%
Cc1cc(C)n2nc(C(=O)OCC(=O)Nc3ccc(Cl)cc3)nc2n1	-8%	-18%
CC(=O)c1ccc(-c2ccc(C(=O)N(C)c3c(N)n(Cc4ccccc4)c(=O)[nH]c3=O)o2)cc1	-13%	-8%
O=C(Nc1nccs1)c1nc[nH]c1C(=O)NCc1ccccc1	-7%	-10%
NCCCCCC(=O)N/N=C/c1ccc2nccnc2c1	-19%	-5%
COc1ccc(/C=N/n2c(-c3cccs3)n[nH]c2=S)cc1	nt	-8%
Cc1ccc(S(=O)(=O)N(C)C[C@H]2Oc3c(NC(=O)Nc4cccc5ccccc45)cccc3C(=O)N([C@@H](C)CO)C[C@@H]2C)cc1	?	?
COc1ccc(S(=O)(=O)NCc2ccco2)cc1C(=O)N1CCOCC1	11%	5%
O=C(COc1ccc2ccccc2c1)Nc1nccs1	-11%	8%
CC(C)(C)n1nnnc1C(c1ccnc2ccccc12)N1CCC2(CC1)C(=O)NCN2c1ccccc1 (stereo not drawn)	21%	4%
CC1(C)Cc2[nH]c(=O)c(C#N)cc2CS1	nt	-4%
COCCCNC(=O)C1CCN(S(=O)(=O)N(CC(C)C)CC(C)C)CC1	-1%	-13%
O=C1CN(C(=O)CSc2nc3ccccc3c(=O)n2Cc2ccc(F)cc2)c2ccccc2N1	-7%	-26%

An excerpt of these results, with values under each structure.
Screens in order – Vaccinia mCherry	VACV Venus inh
> COc1ccc(/C=N/n2c(-c3cccs3)n[nH]c2=S)cc1
 : nt	-8%
> Cc1ccc(S(=O)(=O)N(C)C[C@H]2Oc3c(NC(=O)Nc4cccc5ccccc45)cccc3C(=O)N([C@@H](C)CO)C[C@@H]2C)cc1
 : ?	?
> COc1ccc(S(=O)(=O)NCc2ccco2)cc1C(=O)N1CCOCC1
 : 11%	5%
> O=C(COc1ccc2ccccc2c1)Nc1nccs1
 : -11%	8%

Continued.
smiles	Vaccinia mCherry	VACV Venus inh
CCOC(=O)C1=C(CC)Nc2ccccc2N/C1=N\S(=O)(=O)c1ccc(C(=O)OCC)cc1	-11%	-3%
Cc1cc(-n2c(C)cc(C(=O)COc3cccnc3[N+](=O)[O-])c2C)no1	-12%	-12%
COc1ccccc1CCNS(=O)(=O)CCNC(=O)c1ccc2c(c1)OCO2	-10%	-19%
Fc1ccc(CNCCC(Cc2ccccc2)c2ccco2)cc1 (stereo not drawn)	-15%	-28%
CCOC(=O)c1c(NC(=O)COC(=O)CNC(=O)c2ccco2)sc(C)c1C	?	?
CCCc1cc(=O)oc2c3c(ccc12)OCN(Cc1ccc(OC)cc1)C3	-10%[7.34 µM]	-15%[7.34 µM]
COc1cccc(/C=C/c2nc3ccccc3nc2/C=C/c2cccc(OC)c2OC)c1OC	-14%	-6%
CCCC(=O)Nc1ccc(OCC(O)CNC(C)C)c(C(C)=O)c1 (stereo not drawn)	i	-15%&-8%
Cc1noc(C)c1C(=O)N1CCC(C(=O)c2ccc(F)cc2F)CC1	-18%	-13%
NC(Cc1ccccc1)c1csc(Nc2cc(Oc3ccccc3)ncn2)n1 (stereo not drawn)	?	?
O=C(CC[C@H]1O[C@@H](n2cnc3c(NC(=O)c4ccccc4)ncnc32)[C@H](O)[C@@H]1O)NCc1nc2ccccc2[nH]1	36%[activator]	5%
CC(C)NC(=O)C1(C)CCCN1Cc1ccccc1C#N (stereo not drawn)	30%	-3%
O=C(OCc1csc(-c2ccccc2)n1)c1ccc(O)cc1	3%	-6%
NC1=NC(=O)/C(=C/c2cn(Cc3ccccc3)c3ccccc23)S1	?	?
COc1ccc(NC(=O)Cn2c(=O)oc3cc(S(=O)(=O)NCc4ccccc4)ccc32)c(OC)c1	-15%	-14%
Cc1ccccc1-n1c(SCC(=O)N2CCC(C(=O)O)CC2)nnc1-c1ccncc1	2%	-9%
Nc1ccccc1C(=O)NCCCN1CCN(c2cccc(Cl)c2)CC1	-15%	-1%
CC(=O)Nc1ccc(N2CC(C)(C)C2=O)cc1	i	-8%
COC(=O)CNC(=O)c1ccc(=O)oc1	nt	-1%
CCCC(C(=O)NC1CCCC1)N(Cc1ccc2c(c1)OCO2)C(=O)c1snc(C(N)=O)c1N (stereo not drawn)	-8%	-12%
